Menin MLL FP FL: displaces fluorescein MLL peptide from human menin; Fluorescence polarization, fluorescein-MLL peptide displacement from menin; FP activity change, % at 61.4 µM; 290,000 tested, under 10 active; AID 1766; inconclusive = falling polarisation curve, or a change in total fluorescence; inactive = total fluorescence flat and polarisation flat or rising; no compound was filed as active; the % refers to the polarisation; negative = inhibition;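 further: % of control where 0% means no effect; inhibitors lower the polarisation; unlabelled MLL peptide was the positive control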
PINK1 expr mod: PINK1 expression modulation; PINK1 immunofluorescence, high-content cytometry, 24 h; Potency, µM (top dose mostly 76.6 µM), for the others: at the highest dose activation (PINK1 increase), hits mostly activators; 410,000 compounds, 0.2% hits; active = well fitted activation curve with a large enough effect; inconclusive = small, poorly fitted or top-dose-only effect; inactive = flat fitted curve, though single readings scatter; cell line not stated here;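 further: potency means the concentration at half of the fitted maximal effect; % of control where 0% means no effect; nearly all actives have a fitted effect of over 65% in size; a mitochondrial uncoupler was the plate control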
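PINK1 protein level read as immunofluorescence by microplate cytometer in a fixed, stained stable cell line after 24 h exposure to five compound concentrations, with CCCP as control.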
TRPML1 ag: agonists of human TRPML1 channel | TRPML1-expressing cells, Ca2+ dye fluorescence, FDSS; host cell line not named in the record; reference of the full effect not given here | 410,000 compounds, 0.12% hits | activation, % (test concentration not listed) | Q9GZU1; in the data active = activation above about 50%; inconclusive = about 30% to 50%; inactive = below about 30%; further: 0% is about no effect; the text of the record puts the active cut at 80%
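Agonist activity was taken from a 110 s kinetic Ca2+ dye read on the FDSS after pinning compounds onto TRPML1-DL cells. The cells were seeded at 1,500/well with Tet inducer, incubated about 16 h, then dye-loaded at room temperature.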
TRPV1 potentiator: enhances activation of the human vanilloid receptor TRPV1 | Q8NER1 | TRPV1-expressing cells, Fluo-8 calcium influx, capsaicin EC20 potentiation; host cell line not named in the record; control for the full effect not named in the record | potentiation, % at 8.33 µM | 320,000 compounds, 0.02% hits | AID 540277; active means potentiation above 80%; inconclusive means 30% to 80%; inactive means below 30%; further: 0% is about no effect
Target sequence (Q8NER1 whole entry, looked up): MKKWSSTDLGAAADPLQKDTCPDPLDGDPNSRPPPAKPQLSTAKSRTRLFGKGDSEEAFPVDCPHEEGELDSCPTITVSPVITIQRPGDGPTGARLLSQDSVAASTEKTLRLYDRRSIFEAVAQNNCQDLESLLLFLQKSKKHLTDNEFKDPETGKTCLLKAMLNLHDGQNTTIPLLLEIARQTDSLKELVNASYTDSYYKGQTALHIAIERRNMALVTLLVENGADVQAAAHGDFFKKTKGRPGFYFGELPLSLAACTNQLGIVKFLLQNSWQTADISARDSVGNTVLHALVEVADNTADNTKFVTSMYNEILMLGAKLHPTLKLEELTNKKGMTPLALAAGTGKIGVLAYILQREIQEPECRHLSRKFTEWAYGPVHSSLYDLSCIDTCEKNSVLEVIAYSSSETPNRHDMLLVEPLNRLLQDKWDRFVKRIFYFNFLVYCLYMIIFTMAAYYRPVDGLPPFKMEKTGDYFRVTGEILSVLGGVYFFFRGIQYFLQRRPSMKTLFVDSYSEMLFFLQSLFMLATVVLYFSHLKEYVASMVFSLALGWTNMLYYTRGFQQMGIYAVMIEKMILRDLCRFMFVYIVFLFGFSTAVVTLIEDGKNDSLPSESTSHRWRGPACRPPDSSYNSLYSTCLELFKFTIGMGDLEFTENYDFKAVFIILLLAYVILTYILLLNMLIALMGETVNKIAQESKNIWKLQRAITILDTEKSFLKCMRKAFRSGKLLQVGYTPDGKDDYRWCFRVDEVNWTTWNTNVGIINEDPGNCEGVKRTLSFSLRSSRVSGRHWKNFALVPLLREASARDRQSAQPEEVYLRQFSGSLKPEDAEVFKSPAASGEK
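TRPV1-expressing cells were cultured overnight at 35.5C and loaded with Fluo-8 calcium dye for 40 to 90 min at room temperature. After a 10 s baseline, compound was added and calcium influx was read kinetically for 3 min (ex 480/em 520 nm).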
TRPML1 blocker: inhibitors of human TRPML1 channel | 390,000 compounds, 0.02% hits | Q9GZU1 | activity change, negative = inhibition, % (no concentration beside the values) | TRPML1-inducible cells, Ca2+ dye fluorescence, FDSS; hits give low values; inhibition of EC80 agonist-evoked calcium signal | AID 624415; in the data active means activity change below about -50%; inconclusive means about -30% to -50%; inactive means above about -30%;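 further: stimulus is agonist 54-4 at its EC80 concentration; on the % scale 0 is the no-effect control and ±100 the full control effect; compound concentration not given in the record; the text of the record puts the active cut at -80%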
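TRPML1-DL cells, Tet-induced overnight (~16 h, 37 °C) at 1,500 cells/well, were loaded with Ca8 no-wash dye plus quencher for 45-90 min at room temperature. Compounds were pinned during FDSS kinetic reading; agonist 54-4 at EC80 (4 uM final) then added.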
Sfp PPTase inh: Sfp phosphopantetheinyl transferase inhibition; Potency, µM, inactives show max response, negative = inhibition, hits mostly inhibitors; 310,000 compounds, 3.5% hits; Q9F4F7; Biochemical Sfp PPTase activity, qHTS; AID 1490; active means well fitted inhibition curve with a large enough effect; inconclusive means small, poorly fitted or top-dose-only effect, or another doubt; inactive means no such curve, though single readings can be large or run the other way;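 further: the enzyme is Sfp with the accession as filed and its product quenches rhodamine fluorescence; potency means the concentration at half of the fitted maximal effect; 0% = enzyme reaction without inhibitor and -100% = no enzyme wells; top concentration of the series not given in the record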
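Compounds were incubated with enzyme (final 15 nM) for 15 min at room temperature before substrate addition started the reaction. Fluorescence at 525 nm excitation, 598 nm emission was recorded immediately and after 30 minutes.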
ClpP mod: qHTS Assay for Activators of ClpP. ATP-dependent Clp protease proteolytic subunit (Bacillus subtilis (strain 168)), P80244. purified B. subtilis ClpP, FRET peptide cleavage, 20 min. Potency, µM (highest dose often 57.5 µM), for inactives: at the top dose activity change, negative = active. 340,000 compounds, 1.9% hits; active = well fitted falling curve with a large enough effect; inconclusive = small, poorly fitted or top-dose-only effect; inactive = no such curve, though single readings can be large or run the other way; further: potency means the concentration at half of the fitted maximal effect; the source files actives as falling curves though it sought activators and does not explain the sign; nearly all actives have a fitted effect of over 65% in size; many hits overshoot -100%
Target sequence (P80244 whole entry, looked up): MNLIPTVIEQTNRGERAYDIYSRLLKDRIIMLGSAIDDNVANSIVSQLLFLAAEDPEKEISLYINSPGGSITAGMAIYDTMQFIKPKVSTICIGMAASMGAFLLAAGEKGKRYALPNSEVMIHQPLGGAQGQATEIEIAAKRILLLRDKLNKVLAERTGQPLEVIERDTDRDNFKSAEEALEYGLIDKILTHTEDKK
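ClpP 10 microg/mL final, pH 8 Tris/KCl buffer with BSA, glycerol, Tween-20; compound pinned in; FRET-FV substrate; RT 20 min; Ex320/Em430; ΔFRET vs ADEP 5.8 microM, DMSO, no enzyme.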
* = called active by the depositor; ? = inconclusive; · = no result given; & = joins results of further samples; [ ] = another dose, or the depositor's remark.

smiles	Menin MLL FP FL	PINK1 expr mod	TRPML1 ag	TRPV1 potentiator	TRPML1 blocker	Sfp PPTase inh	ClpP mod
O=C1CCCC2=C1C(c1cccc(Br)c1)n1nc(-c3ccco3)nc1N2 (stereo not given)	·	1.6%	-0.9	·	-5.1	·	-11.0%
COCCN1CCN(c2c3c(nc4cc(-c5cccc(F)c5)nn24)CCC3)CC1	0.0	5.0%	0.6	-3.6	0.6	7.3%	-4.8%
Clc1ccc(N2CCN(Cc3c[nH]c4ncccc34)CC2)cc1	-5.6&-4.6	-0.1%	0.0	-18.9	4.3	-8.1%&-19.7%	1.1%
COC(=O)c1ccc(NC(=O)CN(C)S(=O)(=O)c2ccc3c(c2)CCCC(=O)N3)cc1	·	-0.1%	4.7	·	9.0	·	0.2%
Cc1ccc2c(c1)N(CC(=O)N1CCC(O)CC1)C(=O)CO2	-6.8	-0.6%	1.6	13.1	20.5	3.5%	·
CC(C)C[C@H](NC(=O)c1nc[nH]c1C(=O)N(C)Cc1ccccc1)C(=O)OC(C)(C)C	6.0	2.9%	0.9	-13.9	4.8	3.9%	0.2%
OCC[C@H]1C[C@@H](O)[C@H](O)[C@@]2(CCCCO2)O1	·	-0.8%	3.7	·	-0.6	·	0.6%
Cc1cccc(N2C(=O)C(Cl)=C(N3CCOCC3)C2=O)c1	-3.8	-0.4%	1.0	·	-12.2	3.55µM*	-0.4%
CC(=O)c1c(C)nc(-c2ccc3c(c2)OCO3)n1O	2.8	1.6%	-1.0	-1.1	-7.6	-22.1%	0.4%
CCN(CC)c1ccc(/C=N/N2CC(=O)NC2=S)cc1	·	39.8µM*	1.9	-2.0	-13.1	·	-3.5%
COCC(=O)Nc1ccc(C(N)=O)cc1	-2.1	-3.2%	0.6	-4.9	11.2	19.0%	-2.6%
CC1=CC(C)(C)NC(=S)N1c1cccc2ccccc12	4.5	7.4%	-1.7	-2.2	9.2	27.6%	-26.7%
COc1cccc(NC(=O)C2(C)CCN2Cc2ccccc2Cl)c1 (stereo not given)	·	2.0%	-0.1	·	·	·	-0.5%
Cc1nc(CSc2ccc(Cl)cc2)cc(N2CCOCC2)n1	-0.8	-1.7%	1.9	-18.1	21.3	-4.7%	-2.2%
CC1CCCCN1S(=O)(=O)c1cccc(S(=O)(=O)N2CCOCC2)c1 (stereo not given)	-3.4	-0.9%	0.0	-33.2	4.2	1.4%	-1.8%
COc1ccc(-c2nn(-c3ccccc3)cc2/C=N/N2C(=O)CSC2=S)cc1	6.7	?	0.2	-10.2	8.7	-0.6%	1.6%
COC(=O)c1[nH]c(C)c(/C(O)=C2\C(=O)C(=O)N(CCN3CCOCC3)C2c2cccnc2)c1C (stereo not given)	-2.0	2.9%[38.3 µM]	0.0	-13.9	-6.9	-0.1%	0.3%
NNC(=O)c1nc(-c2cccc(-n3cccc3)c2)no1	1.2	-0.4%	0.9	5.3	-4.0	5.7%	·
Cc1ccc(C2c3[nH]c4ccccc4c3CCN2C(=O)CSc2ccccc2)cc1 (stereo not given)	·	-0.7%	-0.4	·	6.1	·	-4.2%
COc1ccc(NC(=O)CSc2nnc(-c3nonc3NC(C)=O)n2C)cc1Cl	·	-1.1%	1.6	·	40.0	·	-9.0%
CCN(CC)c1ccc(C(=O)OCC(=O)N(C(C)C)C(C)C)cc1	-4.8	0.6%	-0.3	3.6	-14.6	4.1%	·
O=S(=O)(O)c1cc(O)c2cc(Nc3ccccc3)ccc2c1	·	-0.9%	-0.2	·	-3.2	·	0.5%
N#CC(=C1C=CC(=NO)C(Cl)=C1)c1ccc(Cl)cc1	·	2.2%	0.7	·	-7.9	·	-6.1%
Cc1ccc(C(=O)Nc2nncs2)cc1S(=O)(=O)N1CCOCC1	0.1	-0.1%	-0.7	-0.8	14.9	10.9%	0.4%
O=C(CN1CCN(c2ccccc2Cl)CC1)NC1CCCc2ccccc21 (stereo not given)	3.6	27.7%	1.2	-19.9	-18.5	?	-1.3%
CCCCN1C(=O)C(CC(=O)NCc2cccc3ccccc23)CC(C(=O)N(C(C)C)C(C)C)=C1C (stereo not given)	·	2.1%	-0.8	·	·	·	0.7%
Cc1ccc2c(CSc3nnc(C4CC4)n3N)cc(=O)oc2c1C	3.4	-2.8%	0.0	-19.6	-0.1	3.0%	-2.5%
Nc1nc(-c2ccccn2)nc(N)c1Cc1c(F)cccc1Cl	3.4	?	-0.5	3.3	5.9	?	·
O=C(O)CCN1C(=O)CC(N2C(=O)/C(=C/c3ccc(Cl)cc3)SC2=S)C1=O (stereo not given)	10.8	1.4%	-0.3	0.0	5.6	0.3%	-1.1%
Cc1cccc(C(=O)Nc2cc(-c3nc4cccnc4s3)ccc2C)c1	·	0.6%	2.3	·	24.1	·	2.4%
Cc1ccc(NC(=S)N2C3CCCC2CC(NC(=O)C2CC2)C3)cc1C (stereo not given)	-6.2	1.1%	-0.3	8.4	-3.3	9.1%	·
CCC(=O)N1N=C(c2c(-c3ccccc3)c3cc(Cl)ccc3[nH]c2=O)CC1c1ccco1 (stereo not given)	8.1	2.3%	0.0	-11.8	6.6	8.3%	1.0%
Cc1cc(C)c(C)c(S(=O)(=O)Nc2ccc3cn[nH]c3c2)c1C	·	9.7%	-1.3	9.8	-5.5	·	-1.0%
C=C(C)COc1ccc2c(c1)CCC1C2CCC2(C)C(=O)C(=NO)CC12 (stereo not given)	·	-6.9%	2.5	·	-1.0	·	-0.1%
O=C(Nc1ccc([N+](=O)[O-])cc1)c1cc2ccccc2nc1Cl	10.8	4.0%	0.4	-14.2	-0.6	-25.4%	·
Cc1nc2ccc(S(=O)(=O)N(C)CC(=O)N3CCc4ccccc4C3)cc2s1	0.2	0.7%	-0.8	-23.6	-8.0	-9.8%	-3.9%
CCC(=O)NCCc1sc2nc(-c3ccc(OC)cc3)nn2c1C	·	0.3%	-0.1	·	-28.0	·	0.0%
CCOC(=O)Cc1csc(NC(=O)c2ccc(S(=O)(=O)N3CCCC3)cc2)n1	-0.2	-1.6%[38.3 µM]	0.4	-0.8	1.0	6.0%	-0.3%
O=C(COC(=O)c1cc(=O)[nH]c2ccccc12)NC(=O)NC1CCCCC1	-0.7	-0.7%	1.4	8.7	-6.8	-3.5%	0.4%
CCCOc1ccc(-c2c(=O)n(OCC(=O)OCC)c3ccccc3[n+]2[O-])cc1	4.0	1.8%	-1.0	2.4	-1.5	1.4%	-0.7%
O=C(NCC(c1ccco1)S(=O)(=O)c1ccc(Cl)cc1)c1ccccc1F (stereo not given)	·	0.5%	-1.0	·	-3.6	·	0.6%
O=c1oc(CCO)cc2ccc(Br)cc12	·	-0.3%	0.0	·	-10.6	·	-10.3%
COc1ccc(C(=O)CN(Cc2ccccc2)C2=NCCS2)cc1	1.8	0.7%	0.5	1.4	22.2	15.4%	-4.5%
CNc1ccccc1C(=O)OCC(=O)c1ccccc1	-2.6[11.7 µM]	0.3%	-0.1	-18.0	-2.0	-1.2%&-6.8%	6.0%
CC(=O)c1cc(C#N)c(SCC(=O)C(C)(C)C)nc1C	4.6	0.1%[38.3 µM]	0.8	-2.1	-11.1	?	-5.1%
CCCCCCOC(=O)c1ccc(OC(=O)c2cccnc2)cc1	-0.2	·	1.4	26.5	11.9	8.5%	-3.8%
O=C(c1ccc(Br)cc1)C(CN1CCOCC1)c1ccccc1 (stereo not given)	-0.6	-3.6%	1.4	20.0	-1.1	-21.4%	-2.2%
COc1ccc(C(=O)N2CCN(c3nnnn3-c3ccccc3)CC2)cc1OC	2.4	·	-0.1	0.1	-1.4	4.5%	-0.1%
Cc1ccccc1Cn1cnc2c(NS(C)(=O)=O)c(C)c(C)cc21	1.5	-3.3%	0.1	9.7	-0.9	-7.9%	-1.2%
COc1ccc(Nc2cc(C)nc(N3CCOCC3)n2)cc1	2.6	0.6%	2.3	-21.6	41.2	13.7%	-12.5%

(more compounds)
smiles	Menin MLL FP FL	PINK1 expr mod	TRPML1 ag	TRPV1 potentiator	TRPML1 blocker	Sfp PPTase inh	ClpP mod
CCOC(=O)c1cc(-c2ccccc2)n(CCC(=O)O)c1C	-0.7	·	-0.3	-3.3	-11.9	18.2%	-0.9%
C=CCOc1ccc(Cl)cc1CNCCCN1CCOCC1	3.7	·	-0.4	-20.8	-2.3	8.6%	-0.7%
COc1cc(S(=O)(=O)NCc2ccccn2)c(OC)cc1Cl	-0.8	5.5%[38.3 µM]	0.1	12.6	-22.6	0.1%	-0.5%
Cc1ccc(S(=O)(=O)c2c(C)nn(C(C)(C)C)c2OC(=O)C(C)C)cc1	2.2	8.2%	1.2	-11.9	-2.4	5.1%	1.2%
COc1cc(NC(=O)CSc2nc3ccccc3nc2Cc2ccccc2OC)cc(OC)c1	·	6.1%	2.9	·	8.1	·	2.1%
O=C1CN(C(=O)COc2ccc(Cl)cc2)C(c2ccccc2)c2cc(Br)ccc2N1 (stereo not given)	·	-1.3%	0.5	·	6.6	·	-1.4%
O=C(COC(=O)CCC(=O)c1ccc(F)cc1)Nc1ccc(Cl)cn1	·	0.6%	2.0	·	3.9	·	-4.5%
COc1ccc(NC(=O)CSCC(=O)Nc2cccc(S(=O)(=O)N3CCCCCC3)c2)cc1	·	4.6%	1.2	-10.5	28.9	·	-2.5%
CC(=O)C1=C(C)Nc2ncnn2C1c1cccc(Br)c1 (stereo not given)	-5.4	1.0%	-0.9	1.5	-13.9	9.5%	-26.9%
O=c1cc(CO)oc(CN2CCN(Cc3ccccc3)CC2)c1O	2.8	-0.6%	0.9	24.3	10.2	8.8%	-0.3%
Cc1ccccc1C(=O)NC(=S)Nc1ccc(S(=O)(=O)N(C)c2ccccc2)cc1	1.3	0.6%	0.8	6.7	65.2	3.5%	-0.7%
Cc1ccc(NC(=O)C2CCN(c3ncccn3)CC2)cc1F	·	1.2%	-0.5	·	-24.6	·	-17.6%
COc1cccc(C(=O)C2CCCN(Cc3cccc(-n4cccn4)c3)C2)c1 (stereo not given)	-1.1	0.0%	2.1	-9.2	-2.6	9.3%	·
COc1cc(NC(=O)c2ccccc2-c2ccccc2)cc(OC)c1OC	0.8	·	·	-1.1	·	3.8%	·
COC(=O)c1ccc2nc3c(cc2c1)[C@@H]1CCN2C(=O)CCC[C@H](C3)[C@H]12	·	0.5%	-0.7&-0.4	·	-5.3	·	-3.7%&0.9%
COc1ccc(/C(N)=N/OC(=O)/C=C/c2ccccc2)cc1	-1.0	4.7%	-0.1	-1.8	-21.6	-20.3%	·

Bioassay records: PubChem BioAssay, National Center for Advancing Translational Sciences (NCATS)
